FBPA Giardia inh: Giardia lamblia aldolase inhibition | purified Giardia FBPA | hit rate 0.71% among 290,000 | Potency, µM (titrated, usually from 59.6 µM), without a hit: at the highest dose activity, negative = inhibition, hits mostly inhibitors; also: nearly all actives have a fitted effect of over 55% in size
Target sequence (A8B2U2 whole entry, looked up): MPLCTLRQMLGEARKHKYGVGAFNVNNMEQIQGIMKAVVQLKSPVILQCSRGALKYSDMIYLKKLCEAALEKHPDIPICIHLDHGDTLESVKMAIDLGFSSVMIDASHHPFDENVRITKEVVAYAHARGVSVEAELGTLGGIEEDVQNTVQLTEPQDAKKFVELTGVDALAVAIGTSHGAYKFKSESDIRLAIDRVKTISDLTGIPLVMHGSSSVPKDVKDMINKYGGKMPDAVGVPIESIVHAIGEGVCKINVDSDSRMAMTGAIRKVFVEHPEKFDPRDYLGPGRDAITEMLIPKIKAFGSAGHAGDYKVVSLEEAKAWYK
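Giardia FBPA (40 nM reagent) was preincubated 10 min at RT with compound (up to 57.5 uM final), then substrate plus GAPDH/TPI/NAD/arsenate coupling system with diaphorase/resazurin was added; resorufin fluorescence (525/598 nm) was read after 20 min.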
Sm TGR inh: blocks Schistosoma mansoni thioredoxin glutathione reductase. hit rate 3% among 360,000. Q962Y6. Potency, µM (highest dose often 114 µM), for inactives: top-dose activity change, negative = inhibition, actives largely listed as inhibitors. purified TGR, DTNB reduction, TNB absorbance 405 nm. AID 485364; also: nearly all actives have a fitted effect of over 60% in size
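TGR 20 nM + NADPH 100 uM (dispensed conc.), cpd preinc 15 min RT; start with NADPH (500 uM addition) then DTNB (15 mM addition). Kinetic TNB absorbance, 405 nm filter. Four-parameter Hill fit across titration.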
* hit, by the source's call; ? = inconclusive; / = not tested or not shown; & = joins results of further samples; [ ] = remark or other dose. Calls follow the shape of the dose curve; as a rule, active = well fitted curve in the direction sought with a large enough effect; inconclusive = small, poorly fitted or top-dose-only effect, or another doubt; inactive = no such curve, though single readings can be large; an effect the other way counts as inactive or inconclusive. % is scaled to controls: 0 for no effect and ±100 for the full control effect; potency is read from the fitted curve at half-maximal effect. These rows are one share of the data, and most or all hits are left out here.

SMILES | FBPA Giardia inh | Sm TGR inh
Cc1nc2ccccc2c(-c2ccccc2)c1CC(=O)O | -11% | -3%
Cn1c(=O)c2[nH]cnc2n(C)c1=O | -11% | 2%
OCCN(CCO)CCO | -10%&3% | /
CN1CCN(CCC=C2c3ccccc3Sc3ccc(S(=O)(=O)N(C)C)cc32)CC1 | -27%&-4% | -20%
CC(=O)Nc1cccc(-c2csc(Nc3cccc(C)n3)n2)c1 | -10% | -4%
O=C(O)Cc1cc(I)c(Oc2ccc(O)c(I)c2)c(I)c1 | 14% | -1%
C[C@@H](Cc1ccc(O)cc1)NC[C@@H](O)c1cc(O)cc(O)c1 | 0%[21.7 µM] | /
CCCC(=O)c1ccc(O)cc1O | 0% | 2%
O=C(O)CCc1cc(I)c(Oc2ccc(O)c(I)c2)c(I)c1 | 21% | ?
O=C1CC2OCC=C3CN4CC[C@]56c7ccccc7N1[C@H]5[C@H]2C3C[C@H]46 (some centres not stated) | 0%&11% | /
c1csc(CNc2ncnc3ccc(-c4ccc5c(c4)OCCO5)cc23)c1 | / | 3%

Among those listed so far, these have sulfur:
SMILES | FBPA Giardia inh | Sm TGR inh
CN1CCN(CCC=C2c3ccccc3Sc3ccc(S(=O)(=O)N(C)C)cc32)CC1 | -27%&-4% | -20%
CC(=O)Nc1cccc(-c2csc(Nc3cccc(C)n3)n2)c1 | -10% | -4%
c1csc(CNc2ncnc3ccc(-c4ccc5c(c4)OCCO5)cc23)c1 | / | 3%

Looked up by compound from above (5):
SMILES | FBPA Giardia inh | Sm TGR inh
O=C(O)CCc1cc(I)c(Oc2ccc(O)c(I)c2)c(I)c1 | 21% | ?
O=C1CC2OCC=C3CN4CC[C@]56c7ccccc7N1[C@H]5[C@H]2C3C[C@H]46 (some centres not stated) | 0%&11% | /
c1csc(CNc2ncnc3ccc(-c4ccc5c(c4)OCCO5)cc23)c1 | / | 3%
CCCC(=O)c1ccc(O)cc1O | 0% | 2%
Cc1nc2ccccc2c(-c2ccccc2)c1CC(=O)O | -11% | -3%
